# From PubChem BioAssay
# KCNQ2 inh – KCNQ2 channel blockers in CHO-K1 cells – cell-based, FluxOR thallium flux, B-score, primary screen (AID 2156); O88943; 20 min; stronger effect = lower value; only compounds with negative scores are shown here; some inactives read as strong as hits; B-score at 10 µM; 310,000 tested, 1.1% active;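 active = fluorescence ratio B-score at most minus 3 library SDs, with starting brightness B-score within 2 library SDs, cut at about -5.5 in these data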
# Target sequence (O88943 whole entry, looked up): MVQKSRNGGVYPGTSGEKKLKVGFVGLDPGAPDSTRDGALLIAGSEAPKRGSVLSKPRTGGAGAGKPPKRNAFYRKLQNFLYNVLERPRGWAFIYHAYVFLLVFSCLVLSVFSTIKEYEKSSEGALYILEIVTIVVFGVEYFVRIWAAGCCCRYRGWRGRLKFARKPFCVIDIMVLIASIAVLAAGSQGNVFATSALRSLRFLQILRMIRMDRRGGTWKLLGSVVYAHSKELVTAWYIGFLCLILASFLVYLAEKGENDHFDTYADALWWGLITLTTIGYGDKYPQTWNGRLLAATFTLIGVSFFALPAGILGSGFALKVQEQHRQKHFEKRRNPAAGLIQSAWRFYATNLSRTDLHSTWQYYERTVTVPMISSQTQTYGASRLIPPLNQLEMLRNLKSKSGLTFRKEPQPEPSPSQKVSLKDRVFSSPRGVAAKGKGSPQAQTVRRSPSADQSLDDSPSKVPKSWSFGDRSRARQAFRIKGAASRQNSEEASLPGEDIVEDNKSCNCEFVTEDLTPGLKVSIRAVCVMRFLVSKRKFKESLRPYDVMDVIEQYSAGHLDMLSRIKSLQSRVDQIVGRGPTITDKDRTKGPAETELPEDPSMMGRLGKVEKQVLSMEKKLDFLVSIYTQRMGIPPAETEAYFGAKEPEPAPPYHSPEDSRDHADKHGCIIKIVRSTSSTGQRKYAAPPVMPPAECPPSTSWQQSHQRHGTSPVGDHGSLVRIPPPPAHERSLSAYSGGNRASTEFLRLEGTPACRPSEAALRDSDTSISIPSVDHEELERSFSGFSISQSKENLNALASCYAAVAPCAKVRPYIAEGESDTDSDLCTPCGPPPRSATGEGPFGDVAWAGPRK
# KCNQ2 inh baseline – further read-out of KCNQ2 inh, marked with its call; B-score; measured here: initial fluorescence intensity artifact check;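 brightness before thallium and not channel activity; 0 = typical well and far values either way flag optical interference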
# * marks the source's active call; other numbers are inactive results; i = inactive. These rows are one share of the data; rates above refer to the full screens.
SMILES,KCNQ2 inh,KCNQ2 inh baseline
CC1CCCCN1C(=O)C1CCN(c2nc(-c3ccccc3)nc3c2CCC3)CC1 (configuration not stated),i,-1.4
Cc1ccc2c(CC(=O)OC(C)C(=O)Nc3ncc(Cl)cc3Cl)coc2c1 (configuration not stated),i,1.1
COc1cccc(N2CCN(CC(=O)NC3=Nc4ccccc4N=C(C)C3c3ccccc3)CC2)c1 (configuration not stated),i,-1.2
CCCc1cc(C(=O)N2CCCC(C(=O)c3cccc4ccccc34)C2)n(C)n1 (configuration not stated),i,-0.37
O=C(O)CCCNc1c(C(=O)Nc2ccc(Cl)cc2)cc([N+](=O)[O-])cc1[N+](=O)[O-],i,-1
Cc1cc2nc3c(c(=O)n2[nH]1)CCCC3,i,-0.11
O=C(COc1ccccc1)Nc1ccc(N2CCCCC2)cc1,i,1.2
COc1ccc(C(=O)c2cc([N+](=O)[O-])ccc2N2CCCC2)cc1,i,0.01
COc1ccccc1CNC(=O)CN(c1cccc([N+](=O)[O-])c1)S(C)(=O)=O,i,-0.57
Cc1ccc(S(=O)(=O)Nc2cc(-c3ccccc3)nn2C)cc1,i,1.2
Cc1cc(C)c(C2=Nn3c(C)nnc3SC2C)cc1C (configuration not stated),i,0.02
COc1ccc(OC)c(CNC(=O)Cc2c(C(=O)O)[nH]c3ccccc23)c1,i,0.01
CCCCN(C(=O)c1cccc(S(=O)(=O)N2CCN(C)CC2)c1)c1c(N)n(CCC)c(=O)[nH]c1=O,i,0.35
C=CCn1c(SCC(=O)NC2CC2)nnc1-c1ccccn1,i,0.47
Cn1c(=O)c2c(ncn2CC(=O)N2CCCCCC2)n(C)c1=O,i,0.24
Cn1c(SCC(=O)c2ccccc2)nnc1-c1cccnc1,i,0.85
CNC(=O)CSc1nc2ccccc2c(=O)n1C1CCCCC1,i,-0.79
Cc1noc(C)c1S(=O)(=O)N(CC(=O)NC1CCCC1)c1ccc(C(C)C)cc1,i,1.7
Cc1cc(C)cc(C(=O)NCC(=O)OCC(=O)N(C)c2ccccc2)c1,i,0.62
CCN1C(=O)CC(N2CCC(C(=O)OC)CC2)C1=O (configuration not stated),i,0.82
CCN(CC)S(=O)(=O)c1cc(NC(=O)COC(=O)CCc2nc3ccccc3s2)ccc1C,i,-0.42
O=C(Nc1ccc(F)cc1)N1CCN(c2ccc(F)cc2)CC1,i,0.3
CCn1c(-c2cc(-c3ccc(C)c(C)c3)nc3ccccc23)n[nH]c1=S,i,-1.2
COc1ccccc1CNC(=O)COC(=O)Cc1cccs1,i,1.1
Cc1occc1C(=O)N/N=C/c1ccc(N(C)C)cc1,i,0.01

# Seven entries from above, reformatted:
Compound	KCNQ2 inh	KCNQ2 inh baseline
C=CCn1c(SCC(=O)NC2CC2)nnc1-c1ccccn1	i	0.47
Cn1c(=O)c2c(ncn2CC(=O)N2CCCCCC2)n(C)c1=O	i	0.24
Cn1c(SCC(=O)c2ccccc2)nnc1-c1cccnc1	i	0.85
CNC(=O)CSc1nc2ccccc2c(=O)n1C1CCCCC1	i	-0.79
Cc1noc(C)c1S(=O)(=O)N(CC(=O)NC1CCCC1)c1ccc(C(C)C)cc1	i	1.7
Cc1cc(C)cc(C(=O)NCC(=O)OCC(=O)N(C)c2ccccc2)c1	i	0.62
CCN1C(=O)CC(N2CCC(C(=O)OC)CC2)C1=O (configuration not stated)	i	0.82

# Next results follow:
SMILES,KCNQ2 inh,KCNQ2 inh baseline
CC1(C)C(=O)Nc2ccccc2N1C(=O)c1ccc([N+](=O)[O-])cc1,i,-0.02
O=C(CN1c2ccccc2S(=O)(=O)c2ccccc21)NCc1ccc(F)cc1,i,-0.39
CCOc1ccc(CCNC(=O)C(CCC(N)=O)NC(=O)OCc2ccccc2)cc1OCC (configuration not stated),i,-0.08
C=CCn1cc(C(=O)NCCOC)c(=O)c2cc(S(=O)(=O)N(CC)CC)ccc21,i,1.1
OC(COc1c(F)cc(Br)cc1F)CN1CCN(c2ccc(F)cc2)CC1 (configuration not stated),i,-0.02
CCN1CCN(c2nc(-c3ccncc3)nc3ccccc23)CC1,i,1.4
CC(C)(C)C(=O)NCCCc1nc2ccccc2n1CCCOc1ccc(Cl)cc1,i,-0.02
COc1cc(Cl)c(C)cc1NC(=O)CSc1cc(Cl)ccc1Cl,i,-0.29
c1ccc(-c2nc(-c3ccco3)n3ccccc23)cc1,i,0.71
Cc1ccc(C)c(N2CCN(c3ccc(N4C(=O)COCC4=O)cc3[N+](=O)[O-])CC2)c1,i,0.51
Cc1cccc(/C=N/NC(=O)c2cc(C3CC3)nc3ccccc23)n1,i,-0.01
COc1ccc(O)c(C(=O)c2cc(C#N)c(=O)n(-c3c(C)n(C)n(-c4ccccc4)c3=O)c2)c1,i,-0.4
CCOC(=O)c1[nH]c2ccc(OC)cc2c1NC(=O)c1cccc(OC)c1,i,0.19
CN(Cc1ccccc1)c1ncnc2c1cnn2-c1ccccc1,i,-0.08
COc1ccccc1N1CCN(C(=O)CNS(=O)(=O)c2ccc(Br)s2)CC1,i,-0.1
CCCc1cc(=O)[nH]c(SCC(=O)NCCCC(=O)OCC)n1,i,-0.66
COc1ccc2nc(SCC(=O)C(C)(C)C)[nH]c2c1,i,2.4
CC(=O)c1ccc(NC(=O)CCn2c(=O)oc3ccccc32)cc1,i,0.61
COc1ccc(-c2cc(C(=O)OCC(=O)c3c(N)n(C)c(=O)n(C)c3=O)c3ccccc3n2)cc1,i,1.3
O=C(CN1CCN(C2CCCCC2)CC1)Nc1ccccc1-c1ccccc1,i,0.51
c1ccc(-c2n[nH]c3c2CCC3)cc1,i,-0.13
CC(C)CN(C(=O)COC(=O)c1ccc2ccccc2n1)C1CCS(=O)(=O)C1 (configuration not stated),i,0.09
O=S(=O)(NCCNc1nccc(C(F)(F)F)n1)c1ccccc1,i,-0.03
O=C(CCCn1c(=S)[nH]c2ccccc2c1=O)N1CCN(c2cccc(Cl)c2)CC1,i,-1.1
COc1cccc(N(C(=O)Cn2nnc(-c3ccc(C)cc3)n2)C(C(=O)NC(C)(C)C)c2c[nH]c3ccccc23)c1 (configuration not stated),i,0.5

# Reformatted: results already given
SMILES	KCNQ2 inh	KCNQ2 inh baseline
COc1cc(Cl)c(C)cc1NC(=O)CSc1cc(Cl)ccc1Cl	i	-0.29
c1ccc(-c2nc(-c3ccco3)n3ccccc23)cc1	i	0.71
Cc1ccc(C)c(N2CCN(c3ccc(N4C(=O)COCC4=O)cc3[N+](=O)[O-])CC2)c1	i	0.51
Cc1cccc(/C=N/NC(=O)c2cc(C3CC3)nc3ccccc23)n1	i	-0.01

# (further entries)
SMILES,KCNQ2 inh,KCNQ2 inh baseline
CCOC(=O)c1c(C)c2c(=O)[nH]cnc2n1-c1ccccc1,i,-1.1
CN(c1ccc(C(=O)N/N=C/c2cccc([N+](=O)[O-])c2)cc1)S(=O)(=O)c1ccccc1,i,0.52
CCOC(=O)C1CCN(C(=O)c2ccc3snnc3c2)CC1,i,1.4
CN(C)CCn1c2c(c(SCC(=O)N3CCc4ccccc43)nc1=O)CCCC2,i,0.04
O=C(CN1CCOCC1)Nc1ccc(C2CCCCC2)cc1,i,-1.1
COc1ccc(CNC(=O)CSc2nc3ccc(C)cc3[nH]2)cc1OC,i,-0.67
CN(C)c1ccnc(Nc2ccccc2)c1C#N,i,0.95
c1cncc(-c2nnc3n2C2(CCCCC2)Cc2ccccc2-3)c1,i,0.21
CN(CC(=O)Nc1ccc(Cl)c(C(F)(F)F)c1)C(=O)C1(c2ccccc2)CC1,i,-1.9
Nc1nonc1C(=O)NCCN=Cc1ccccc1O,i,0.3
COc1ccc(OCCOCCN2CCOCC2)cc1,i,-0.74
C=CCN(c1ccccc1)S(=O)(=O)c1ccc2c(c1)NC(=O)C(C)S2 (configuration not stated),i,-0.67
CCOC(=O)C1=C(C)N=c2s/c(=C\c3ccncc3)c(=O)n2C1c1ccc2c(c1)OCO2 (configuration not stated),i,0.42
CCOc1ccccc1C(=O)NC(C(=O)Nc1cccnc1)C(C)C (configuration not stated),i,-0.49
Cc1nnc(NC(=O)CSc2nc3[nH]ncc3c(=O)[nH]2)s1,i,0.33

# 4 entries from above in a different format:
# Fields: KCNQ2 inh | KCNQ2 inh baseline
CN(C)c1ccnc(Nc2ccccc2)c1C#N
 : i | 0.95
CCOC(=O)C1CCN(C(=O)c2ccc3snnc3c2)CC1
 : i | 1.4
Nc1nonc1C(=O)NCCN=Cc1ccccc1O
 : i | 0.3
CCOc1ccccc1C(=O)NC(C(=O)Nc1cccnc1)C(C)C (configuration not stated)
 : i | -0.49
